Mtb bLac sens: beta-lactam sensitization of Mtb H37Rv; M. tuberculosis H37Rv growth with meropenem, percent inhibition; hits of this screen are not shown here; inhibition, % at 25 µM; 0.27% of 330,000 active;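 active = about 74% or more and at least 40 points above the plate without the antibiotic, then above 30% in a dose series; inconclusive = first-round hits that could not be retested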;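 note: growth measured after seven days incubation then overnight dye step; 0% = bacteria only wells and 100% = bacteria with antibiotic; twin plates without the antibiotic show which effects depend on it; some results filed as inactive read as strong as hits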
Mtb growth: M. tuberculosis H37Rv growth inhibitors, H37Rv strain (AID 1626); one-dose inhibition, % at 10 µM; IC50 in µM for titrated hits; M. tuberculosis H37Rv growth inhibition; higher % means a stronger effect; 0.95% of 220,000 active;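 active = confirmed in a dose series; inconclusive = inhibition above 80% but not taken into the dose series; inactive = below 80% or under 30% at every dose of the series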;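 note: bacteria incubated seven days before Alamar blue readout; 0% = bacteria only wells and 100% = bacteria with antibiotic wells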
YopH PTP inh: YopH (Yersinia) phosphatase inhibition; fluorescence Ex485/Em525; inhibition, %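 (about 10 µM by stock and volumes)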; 0.16% of 140,000 active;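 active = inhibition of 50% or more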;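 note: controls were vehicle for no effect and minimum signal wells for full effect; inactives centre near -20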
Arbovirus inh: arbovirus infection inhibition. inhibition, % at 10 µM. 0.37% of 200,000 active. arbovirus infection cell-based antiviral screen;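 active = inhibition from about 30%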;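 note: bluetongue infection of BSR cells; cell survival read as ATP light after 72 h; 0% = infected wells without compound and 100% = uninfected wells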
RecA intein inh: blocks M. tuberculosis RecA intein splicing; 0.75% of 290,000 active; cell-free RecA intein splicing, fluorescence; inhibition, %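 (about 9 µM by stock and volumes)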; in the data active = inhibition above about 30%; inconclusive = no clear call, values can overlap the other calls;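 note: 0% = vehicle wells and 100% = reference inhibitor control wells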
Target sequence (P9WHJ3 whole entry, looked up): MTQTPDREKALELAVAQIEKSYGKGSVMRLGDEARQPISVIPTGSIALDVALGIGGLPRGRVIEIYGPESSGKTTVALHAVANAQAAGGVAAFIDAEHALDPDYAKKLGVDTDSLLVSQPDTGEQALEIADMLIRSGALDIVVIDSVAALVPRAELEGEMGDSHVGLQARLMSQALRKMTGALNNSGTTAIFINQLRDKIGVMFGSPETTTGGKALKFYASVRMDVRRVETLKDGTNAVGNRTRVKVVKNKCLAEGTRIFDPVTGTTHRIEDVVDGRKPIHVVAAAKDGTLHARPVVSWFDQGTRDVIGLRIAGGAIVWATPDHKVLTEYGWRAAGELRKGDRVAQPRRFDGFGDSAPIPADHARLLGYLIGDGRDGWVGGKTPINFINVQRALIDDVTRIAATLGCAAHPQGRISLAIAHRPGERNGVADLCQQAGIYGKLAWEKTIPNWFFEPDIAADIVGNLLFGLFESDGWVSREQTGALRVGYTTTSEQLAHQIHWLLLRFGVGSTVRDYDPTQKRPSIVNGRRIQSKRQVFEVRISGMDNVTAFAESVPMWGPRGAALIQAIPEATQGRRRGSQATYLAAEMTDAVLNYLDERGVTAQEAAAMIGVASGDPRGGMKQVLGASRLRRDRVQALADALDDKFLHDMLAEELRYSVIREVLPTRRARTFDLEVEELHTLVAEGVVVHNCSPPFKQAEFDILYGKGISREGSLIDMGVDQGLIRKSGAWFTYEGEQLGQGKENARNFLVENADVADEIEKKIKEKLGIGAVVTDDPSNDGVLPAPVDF
Arbovirus inh repeat: recorded beside Arbovirus inh, whose call it bears; inhibition, %; measured here: 10K subset replicate screen; many hits read low in the repeat;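 first of two repeat runs on a subset; 0% = infected and 100% = uninfected wells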
An asterisk follows results filed as active; ? = inconclusive; / = not tested or not shown. Some of the compounds tested, so the mix of outcomes need not match the whole.

Start of the data: the first 4 records, ahead of the listing:
SMILES	Mtb bLac sens	Mtb growth	YopH PTP inh	Arbovirus inh	RecA intein inh	others
Cc1ccc(NC(CNS(=O)(=O)c2ccc(Cl)cc2)c2ccccc2)cc1 (centres undefined)	-3	54%	-35	-38	/
O=C(O/N=C(\c1ccccc1)c1ccccn1)c1cccc2ccccc12	10	5%	-21	-27	2.2
COc1ccc(Br)cc1C1CC(=O)N2CN(Cc3ccccc3)CSC2=C1C#N (centres undefined)	-4	1%	-48	1	19	Arbovirus inh repeat=1
O=C(COC(=O)c1ccc(Cl)cc1O)Nc1cccnc1Cl	-12	-2%	-28	-1	1.7

Main list, repeating the preview:
SMILES	Mtb bLac sens	Mtb growth	YopH PTP inh	Arbovirus inh	RecA intein inh	others
Cc1ccc(NC(CNS(=O)(=O)c2ccc(Cl)cc2)c2ccccc2)cc1 (centres undefined)	-3	54%	-35	-38	/
O=C(O/N=C(\c1ccccc1)c1ccccn1)c1cccc2ccccc12	10	5%	-21	-27	2.2
COc1ccc(Br)cc1C1CC(=O)N2CN(Cc3ccccc3)CSC2=C1C#N (centres undefined)	-4	1%	-48	1	19	Arbovirus inh repeat=1
O=C(COC(=O)c1ccc(Cl)cc1O)Nc1cccnc1Cl	-12	-2%	-28	-1	1.7
Clc1ccc(OCCCc2nc(-c3ccncc3)no2)c(Cl)c1	82	10%	10	-26	12
Nc1nnc(SCC(=O)Nc2cccc(S(=O)(=O)N3CCOCC3)c2)s1	-5	/	/	/	-0.5
CN(Cc1ccccc1)c1ccc(C(CC(N)=O)NC(=O)c2ccccc2)cc1[N+](=O)[O-] (centres undefined)	-5	/	/	/	-0.3
CC/C(=N\O)c1c(O)c2c(n(-c3ccccc3)c1=O)CCCC2	4	5%	-34	9	2.6
COc1ccc(OC)c(S(=O)(=O)N2CCN(Cc3ccccc3)CC2)c1	-3	/	/	/	2.4
Fc1cccc(/C=N/N=C/c2cccc(F)c2)c1	3	-3%	/	3	-2.1
Cc1cc(NCCN2CCOCC2)c2ccc3ccccc3c2n1	-2	-8%	/	24	6.3
COc1ccc(OC2C(=O)N(Cc3ccc(F)cc3)C2c2cc(OC)c(OC)c(OC)c2)cc1 (centres undefined)	-2	0%	-22	0	-3.3
O=C(c1ccco1)N1CCN(c2ncnc3c(-c4ccccc4)nsc23)CC1	27	-9%	-39	4	/
O=C(CN1C(=O)c2ccccc2C1=O)N1CCN(c2nnc(-c3ccccc3)c3ccccc23)CC1	5	-3%	-13	-10	0.1
CCOC(=O)C(C(=O)Nc1nc2ccccc2s1)C1CCCCC1 (centres undefined)	30	-4%	-13	-1	11
COc1ccc(-c2csc(NC(=O)CSc3ccc(Br)cc3)n2)c(OC)c1	64	8%	-21	-1	7.5
COc1ccccc1N1CCN(C(=O)C2CCCN(S(=O)(=O)c3ccc4c(c3)oc(=O)n4C)C2)CC1 (centres undefined)	?	/	/	/	7.3
O=c1c2ccccc2nc(-c2ccccc2)n1-n1cccc1	-15	-5%	-2	-5	-0.5
CC(=O)c1cnc(-c2ccccc2)s1	/	6%	/	-1	-2.0
COc1cc(OC)cc(C(=O)Nc2cccc(NC(=O)c3cc(OC)cc(OC)c3)n2)c1	-4	/	/	/	-0.4
COC(=O)c1[nH]c2ccc(C)cc2c1NC(=O)C(C)N1CCN(C2CCCCC2)CC1 (centres undefined)	-12	-3%	-42	-5	-0.1
CNc1ccc(Cl)cc1C(N)=O	-7	-7%	/	/	-43
CS(=O)(=O)/C(C#N)=C/c1c(-c2ccccc2)nc2n1CCS2	-4	-6%	/	/	-2.8
Cc1ccc(C(C)C)c(OCC(=O)Nc2ccc3c(c2)nc(CN2CCCC2)n3C)c1	-2	15%	-13	0	4.9
O=C(Nc1cccc(C(F)(F)F)c1)c1cncs1	-2	/	/	/	-1.9

(cont.)
SMILES	Mtb bLac sens	Mtb growth	YopH PTP inh	Arbovirus inh	RecA intein inh	others
CCc1ccc(CN2CCCC(CNC(=O)c3cccc(OC)c3OC)C2)cc1 (centres undefined)	-7	/	/	/	1.3
CSc1ncc(CN2CCCC(C(=O)c3ccc(C(C)(C)C)cc3)C2)cn1 (centres undefined)	71	27%	/	-18	5.6
Cc1ccc(NC(=O)CCC(=O)OCC(=O)c2ccc(Oc3ccc([N+](=O)[O-])cc3)cc2)c(C)c1	6	-7%	-22	1	-5.1
COc1ccc(-n2c(O)c(C(C)=NCC3CCCO3)c(=O)[nH]c2=O)cc1 (centres undefined)	-8	0%	/	/	-2.3
Cc1cc(CNC(=O)Cc2ccccc2)c2ccccc2n1	1	-11%	/	-1	-1.5
COc1cc(C(=O)NCCC(=O)NCCCN2CCCCC2C)cc(OC)c1OC (centres undefined)	-14	-2%	-22	4	-2.0
C=CCn1c(SCC(=O)NC2CCCc3ccccc32)nnc1-c1ccncc1 (centres undefined)	-1	-8%	-31	-1	1.5
O=C(c1ccc2c(c1)OCO2)N1CCN(c2ccccn2)CC1	2	-4%	-34	-3	0.5
CCC1=NC(c2ccc(OC)cc2)N(O)C1(C)C (centres undefined)	-3	-9%	-27	14	-1.0
COc1ccc(CNS(=O)(=O)NCc2ccc(C)cc2)cc1	1	/	/	10	3.2
CC(=O)Nc1ccc(S(=O)(=O)N2CCCN(S(=O)(=O)c3ccc(NC(C)=O)cc3)CC2)cc1	-1	-7%	-93	4	-1.3
COc1nc(OC)nc(Oc2ccc(Cl)cc2[N+](=O)[O-])n1	2	15%	-18	10	3.3
Cc1csc2nc(O)c(C(=O)NCCC3=CCCCC3)c(=O)n12	3	/	/	/	10
Cc1cc2ncc(C(N)=O)cn2n1	3	-1%	/	-6	-1.5
CCc1cccc(CC)c1NC(=O)COC(=O)CC1c2ccccc2CCN1S(=O)(=O)c1ccccc1 (centres undefined)	-3	?	-25	14	16
CC(OC(=O)CN(C)S(=O)(=O)c1ccc(Cl)cc1)C(=O)Nc1ncc(Cl)cc1Cl (centres undefined)	-9	-15%	12	-4	6.5
CCOC(=O)c1ccc(N2C(=O)c3n[nH]c(C)c3C2c2ccc(OC)cc2OC)cc1 (centres undefined)	1	-28%	-26	-5	/
CCC(C)Cn1c(S(=O)(=O)O)nc2ccccc21 (centres undefined)	-4	-22%	12	-2	0.8
O=C(NCc1cccc(C(F)(F)F)c1)c1ccc2c(c1)OCCO2	1	/	/	/	-1.8
CS(=O)(=O)N1CCN(c2ccnc3cc(Cl)ccc23)CC1	-4	4%	/	2	-5.5
C[C@@H]([C@H](O)c1ccccc1)N(C)C(=S)Nc1ccccc1	1	/	/	/	0.3
O=C(CN(Cc1cccs1)C(=O)CSc1nnc(COc2ccccc2)o1)NC1CCCCC1	-5	-3%	-6	0	-0.8
CCN(CC)C(=S)SCC(=O)c1ccc(F)cc1	1	13%	-13	-4	3.8
COc1cccc(OC)c1OCC(O)CN1CCN(c2ccc(F)cc2)CC1 (centres undefined)	-3	/	/	/	1.7
O=C(COc1ccccc1F)NNC(=O)c1ccc(N2CCCCC2)c([N+](=O)[O-])c1	3	3%	2	-1	3.7

Continued:
SMILES	Mtb bLac sens	Mtb growth	YopH PTP inh	Arbovirus inh	RecA intein inh	others
CCC(=O)Nc1nc(=S)ss1	-6	-3%	-59	-3	3.2
O=C(NCCCN1CCN(Cc2ccccc2)CC1)c1nnc(Cc2c(F)cccc2Cl)o1	23	2%	-24	8	/
CCOC(=O)c1c(S(=O)(=O)NCC(=O)Nc2cc(C)ccc2OC)c(C)n(C)c1C	-7	/	/	/	-2.4
COc1ccc(-c2ncc(CN3CCC(CO)(Cc4cccc(OC)c4)CC3)cn2)cc1	10	24%	/	10	-2.2
Cn1c(=O)cc(SCC(=O)N2CCC3(CC2)OCCO3)c2ccc(Cl)cc21	7	-10%	-6	-1	/
O=C(Cn1c(=O)n(Cc2ccco2)c(=O)c2ccccc21)NCC1CCCO1 (centres undefined)	0	3%	-43	2	-18
CC(OC(=O)CN1C(=O)NC(C)(C)C1=O)C(=O)c1ccccc1 (centres undefined)	-2	1%	-8	2	1.7
CCOC(=O)C1CCN(c2c(NCc3ccc(C(=O)Nc4ccc(C)cc4)cc3)c(=O)c2=O)CC1	-1	3%	/	/	-1.1
Cc1ccc(NC(=O)Cn2c(O)c(N=NC(=O)c3cc([N+](=O)[O-])ccc3O)c3ccccc32)cc1	1	46%	/	/	1.5
COc1ccc(-c2c(O)c(C#N)c(-c3ccccc3)n(-c3ccc(OC)cc3)c2=O)cc1	?	-13%	-40	2	0.8
O=C(CSc1nnc(Cc2ccccc2)n1-c1ccccc1)NNC(=O)Cc1ccccc1	-4	-8%	-30	3	/
COc1ccc(F)cc1S(=O)(=O)N1CC(C)CC(C)C1 (centres undefined)	?	3%	-24	3	0.3
CCCCc1nnc(SCCSc2nnc(CCCC)n2N)n1N	-10	-19%	-15	4	-1.0
CCn1c(=O)n(-c2ccc(Cl)cc2)c(=O)c2c3c(sc21)COC(C)(C)C3	-1	1%	-10	2	0.1
Oc1ccc(/C=N/N(Cc2ccccc2)c2ccccc2)cc1	19	6%	/	-30	21
C[C@@H]1CC2OC(=O)[C@@]3(C)C(=O)CC[C@@](C)(C23)[C@@]1(O)CCc1ccoc1 (some centres undefined)	0	/	/	/	-3.1
Cn1c(=O)c2c(nc(NCCNC(=O)c3ccco3)n2Cc2ccc(Cl)cc2Cl)n(C)c1=O	6	-9%	-21	-7	0.4
CCN1C(=O)[C@H]2[C@@H](c3ccc(C)cc3)N3C(=O)N(c4cccc(F)c4)C(=O)[C@@]3(CC)[C@H]2C1=O	-16	/	/	/	1.4
Cc1nc2nc(-c3ccco3)[nH]n2c(=O)c1Cc1ccccc1	-6	-2%	-45	8	2.1
CCOc1ccc(NS(=O)(=O)c2cc3c4c(c2)CCN4C(=O)CC3)cc1	-6	/	/	/	-0.8
Cc1cccc(Nc2cc(=O)[nH]c(=O)[nH]2)c1	7	3%	-34	-8	-5.5
CCOc1ccc2c(c1)c(N=NC(N)=S)c(O)n2C	10	0%	/	/	-3.0
O=C(NCc1ccc(Cl)cc1)c1ccc(OCC2CCCO2)cc1 (centres undefined)	1	5%	-18	-5	0.3
O=C(Nc1ccc(-c2nc3cc(Cl)ccc3o2)cc1)C1CCCO1 (centres undefined)	-19	5%	8	-14	-0.6
COc1cccc(Nc2nc(C)nc3c2oc2ccccc23)c1	49	/	/	/	2.1

5 compounds drawn at random from the list so far:
SMILES	Mtb bLac sens	Mtb growth	YopH PTP inh	Arbovirus inh	RecA intein inh	others
CCC(=O)Nc1nc(=S)ss1	-6	-3%	-59	-3	3.2
COc1ccc(-c2c(O)c(C#N)c(-c3ccccc3)n(-c3ccc(OC)cc3)c2=O)cc1	?	-13%	-40	2	0.8
CC(OC(=O)CN1C(=O)NC(C)(C)C1=O)C(=O)c1ccccc1 (centres undefined)	-2	1%	-8	2	1.7
Cc1cccc(Nc2cc(=O)[nH]c(=O)[nH]2)c1	7	3%	-34	-8	-5.5
CCOc1ccc2c(c1)c(N=NC(N)=S)c(O)n2C	10	0%	/	/	-3.0

More records follow:
SMILES	Mtb bLac sens	Mtb growth	YopH PTP inh	Arbovirus inh	RecA intein inh	others
O=C(Cn1cccc1)Nc1ccc(OC(F)(F)F)cc1	-15	6%	-27	-4	-0.6
O=C1CC(c2cccs2)Cc2nc(NCC3CCCO3)ncc21 (centres undefined)	-9	-8%	-37	-6	0.7
CC(=O)N(C1=NCCCS1)c1ccccc1F	0	0%	-9	3	-0.9
N#C/C(=C(/O)c1ccc(-c2cccc([N+](=O)[O-])c2)o1)c1nc2ccccc2s1	/	2%	/	-4	7.4
CC(=O)c1c(O)n(C2CCCCCC2)c(=O)[nH]c1=O	17	-3%	-18	15	1.1
Cc1cc(C)n(CCc2nc(-c3ccco3)cs2)n1	15	-9%	-17	10	0.3
O=C(CSc1nnc(C2CC2)n1Cc1ccco1)NCC(F)(F)F	1	5%	/	7	-0.8
C/C(=N\NC(=O)C(O)(c1ccccc1)c1ccccc1)c1ccc(NC(=O)CCCC(=O)O)cc1	1	/	/	/	1.6
Nc1ccc(Nc2ccccc2)c(S(=O)(=O)O)c1	-7	-13%	/	/	1.9
O=C(c1cccc(C(F)(F)F)c1)N1CCC(O)(CS(=O)(=O)Cc2ccccc2)CC1	0	-8%	-17	2	-1.1
COc1ccccc1OCc1ccc(C(=O)N2CCOCC2)o1	-9	6%	-22	3	-0.1
CCOC(=O)c1ccc(N/C=C2\CCCCC2=O)cc1	98	>100µM*	-19	-5	-4.9
COc1ccc(Nc2ccc([N+](=O)[O-])cn2)cc1	3	/	/	/	5.3
COC(=O)CCCNC(=O)c1ccc2nc(Cc3ccc(OC)cc3)oc2c1	1	/	/	/	-2.5
Cc1ccc(-c2noc(CCC(=O)NCC3CCCO3)n2)cc1 (centres undefined)	-2	-6%	5	0	2.4
O=C(CNc1ccc(F)cc1)N/N=C/c1c(O)ccc2ccccc12	8	/	/	/	-4.5
COc1ccc(CN(C)C(=O)c2cccc(Oc3ccccc3)c2)c(OC)c1OC	2	/	/	/	8.2
Nc1ccccc1C(=O)OCC(=O)c1ccc2c(c1)OCCO2	0	-1%	/	-26	0.4

High-throughput results deposited in PubChem by several laboratories.
